MT1-MMP act inh: blockers of MT1-MMP proenzyme processing, primary screen, HT1080 RFP-PRO-GFP cells, GFP/RFP fluorescence. Matrix metalloproteinase-14 (Homo sapiens), P50281. GFP/RFP ratio fluorescence, overnight; percent of plate control window, DMSO zero. GFP/RFP ratio change, % at 20 µM. hit rate 0.061% among 360,000. AID 651647, 2012;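 active = GFP/RFP ratio change of at least 30% with cell ATP level not reduced by more than half and red fluorescence within 50% of control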; also: strong numbers were not always called active
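Material: RFP-PRO-GFP reporter HT1080 cells. Dosing: single-point 20 µM compound, 1% DMSO. Controls: DMSO and RFP-L50D-GFP cell wells. Timing: cells overnight before dosing, compound overnight, 37 °C, 5% CO2. Measure: GFP/RFP fluorescence ratio.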
eIF4H FP inh: human eIF4H binding inhibitors, primary screen, translation initiation inhibitor project, biochemical, uHTS, fluorescence polarization; Eukaryotic translation initiation factor 4H (Homo sapiens), Q15056; eIF4H fluorescence polarization binding assay; inhibition, % at 35 µM; hit rate 0.94% among 290,000; AID 2012, 2009;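 active = 50% or more with normal probe brightness, or confirmed in later tests; inconclusive = above 50% with abnormal brightness, or retests that disagree; inactive = below 50% or failed in later tests; about a fifth of its hits are not listed in these tables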;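 also: calls also rest on retests at 20 µM and on dose response follow-up; 0% = protein and probe with vehicle and 100% = probe without protein; strong numbers were not always called active; many hits fall short of the cut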
UUG fidelity: modulators of yeast start codon fidelity, primary screen, whole organism, S. cerevisiae, single point, plate reader; S. cerevisiae UUG-firefly luciferase reporter, luminescence/redox ratio; AID 602363, 2012; hit rate 0.13% among 350,000; activity score, % at 18.7 µM;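 active = replicate mean at a twofold rise or more, about +100% in these data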;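 also: firefly luciferase made from a UUG start codon reports start codon fidelity; reporter light over untreated wells divided by growth signal over untreated wells; some hits fall short of that in this replicate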
CSC inhib: cancer stem cell viability inhibitors, primary screen, luminescence; cancer stem cell-like cells viability; inhibition, % at 7.5 µM; hit rate 1.1% among 300,000;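 active = mean at 75% or more and at least half the replicates too; inconclusive = mean and replicates disagree; tested in HMLE shEcad cells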;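 also: 0% = median of negative and 100% = median of positive control wells; the first replicate is given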
PABP polyA inh: PABP poly(A) RNA binding inhibitors, primary screen, biochemical, fluorescence polarization, uHTS; Polyadenylate-binding protein 1 (Homo sapiens), P11940; inhibition, % at 35 µM; hit rate 1% among 290,000; AID 2014, 2009;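 active = 50% or more with normal probe brightness, or confirmed in later tests; inconclusive = above 50% with abnormal brightness, or retests that disagree; inactive = below 50% or failed in later tests; about a fifth of its hits are not listed in these tables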;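 also: calls also rest on retests at 20 µM and on dose response follow-up; controls were probe without protein and protein plus probe with vehicle; some compounds called inactive have numbers as strong as hits; many hits fall short of the cut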
Target sequence (P11940 whole entry, looked up): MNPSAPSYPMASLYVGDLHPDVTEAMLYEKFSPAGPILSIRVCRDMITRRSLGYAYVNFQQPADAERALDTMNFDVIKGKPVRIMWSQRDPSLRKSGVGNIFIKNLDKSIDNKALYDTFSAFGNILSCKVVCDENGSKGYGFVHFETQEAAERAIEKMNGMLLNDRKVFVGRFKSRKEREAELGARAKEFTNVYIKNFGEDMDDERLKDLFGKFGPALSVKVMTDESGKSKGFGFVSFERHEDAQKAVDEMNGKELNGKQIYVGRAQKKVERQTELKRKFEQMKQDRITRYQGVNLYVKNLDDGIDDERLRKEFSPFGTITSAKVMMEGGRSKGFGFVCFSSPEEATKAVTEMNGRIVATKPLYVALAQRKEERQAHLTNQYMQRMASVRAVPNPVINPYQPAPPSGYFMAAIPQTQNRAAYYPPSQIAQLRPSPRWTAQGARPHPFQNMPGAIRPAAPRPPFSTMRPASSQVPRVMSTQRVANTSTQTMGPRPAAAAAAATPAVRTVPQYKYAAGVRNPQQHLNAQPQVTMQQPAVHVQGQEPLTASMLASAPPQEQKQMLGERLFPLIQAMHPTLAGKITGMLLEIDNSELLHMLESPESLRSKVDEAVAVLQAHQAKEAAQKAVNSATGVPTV
HIV Env fusion: inhibitors of HIV-1 Env-driven cell-cell fusion, primary screen, HeLa-JRFL effector, CEM21 target cells, luciferase | AID 651610, 2012 | inhibition, % at 12.3 µM | hit rate 1.1% among 360,000;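 active = mean replicate inhibition score of at least 50 and every replicate individually at or above 50; inconclusive = only one of the two criteria met; inactive = mean below 50 and not all replicates reaching 50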;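 also: 0% = plate neutral controls and 100% = maraviroc near 300 nM; one replicate is shown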
Rce1 inh: yeast Rce1p protease inhibitors, primary screen, biochemical, fluorescence, cell-free homogeneous; CAAX prenyl protease 2 (Saccharomyces cerevisiae (strain ATCC 204508 / S288c)), Q03530; yeast membranes, quenched prenylated peptide cleavage fluorescence; calls only; hit rate 0.27% among 290,000; AID 2563, 2010;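 active = fall in fluorescence gain of 50% or more versus controls, with final raw signal at or below 3038400; inconclusive = same 50% fall but final raw signal above 3038400; inactive = fall in fluorescence gain under 50%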;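 also: plate controls were neutral control wells for no effect and wells lacking membranes for full effect; tested at 10 µM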
MT1-MMP act inh RFP: recorded beside MT1-MMP act inh, whose call it bears; RFP signal change, %; measured here: RFP expression control read;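 0 = vehicle wells; hits needed this value within 50% of zero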
* marks the source's active call; other numbers are inactive results; i = inactive; u = inconclusive; x = not tested or not shown.

nr	SMILES	UUG fidelity	Rce1 inh	PABP polyA inh	MT1-MMP act inh RFP
1	COc1ccc(S(=O)(=O)N2CCC3(CC2)OCCN3S(=O)(=O)c2ccccc2)cc1OC	-1	i	x	1
2	O=c1c2ccc(Cl)cc2nc2n1CC/C2=C\c1cccc(O)c1	-7	i	15	5
3	CC(C)CNC(=O)C(=O)NCC(c1ccc2c(c1)OCO2)N1CCOCC1 (stereo not given)	2	i	-7	0
4	CCC(=O)Nc1ccc(Cl)c(NC(=S)NC(=O)c2ccco2)c1	x	i	-2	-1
5	COc1ccc(Cl)cc1C(=O)OCC(=O)c1ccc[nH]1	1	x	x	1
6	Cc1ccc(NS(=O)(=O)c2cccc(C(=O)O)c2)cc1S(=O)(=O)N1CCCCC1	x	i	-1	6
7	COCCn1nnnc1C(c1cc2c(C)cc(C)cc2[nH]c1=O)N1CCCCCC1 (stereo not given)	5	i	43	1
8	Cc1cccc(NC(=S)NC(=O)c2ccc(Br)o2)c1	-11	x	0	-4
9	O=C(NC12CC3CC(CC(C3)C1)C2)c1cncc(O)c1	-8	i	4	0
10	COc1ccc(Cl)cc1NC(=O)CSc1nnc(-c2ccncc2)n1CC1CCCO1 (stereo not given)	-11	i	5	4

nr	eIF4H FP inh	HIV Env fusion	CSC inhib	MT1-MMP act inh
1	x	-3	10	6
2	6	-26	-2	2
3	-8	7	-4	-1
4	-3	-31	-14	1
5	x	9	x	0
6	-4	x	-7	1
7	-2	x	-2	-2
8	1	-18	-10	-7
9	-5	-10	0	3
10	-3	-49	-6	1

More entries.
nr	SMILES	UUG fidelity	Rce1 inh	PABP polyA inh	MT1-MMP act inh RFP
11	COC(=O)[C@H]1C[C@@H](c2ccccc2)[C@H](C)C1(C)C	-5	x	x	0
12	Cc1ccn(S(=O)(=O)c2ccc(C(C)(C)C)cc2)n1	-8	i	-3	2
13	COc1ccccc1/C=C1/SC(=S)N(C(C)C(=O)NC2C=CS(=O)(=O)C2)C1=O (stereo not given)	-14	i	x	2
14	CCNC(=O)C1(C)CCN(C(=O)c2cccc(C(F)(F)F)c2)C1 (stereo not given)	-11	x	x	7
15	COc1ccc(-n2c(SCC(=O)Nc3cccc(S(N)(=O)=O)c3)nc3ccccc3c2=O)cc1OC	-8	i	-1	-6
16	COc1cccc(-c2ccc(NC(=O)C3CCCN(Cc4ccccn4)C3)cc2)c1 (stereo not given)	-11	x	x	-2
17	Cc1ccc(C(=O)N2NC(c3ccccc3F)C3C(=O)N(c4cccc(C)c4)C(=O)C32)cc1 (stereo not given)	-9	i	-9	2
18	Cc1ccc(S(=O)(=O)NC(N)=NCCc2ccc(Cl)cc2)cc1	x	i	3	-2
19	COc1ccc(C(=O)N2CCCC(c3cc(C(=O)NCc4ccc(F)cc4)no3)C2)cc1 (stereo not given)	-2	x	x	-4
20	CCCCn1c(N)c(N(CCC(C)C)C(=O)C2CSC3(C)CCC(=O)N23)c(=O)[nH]c1=O (stereo not given)	-16	i	x	-5

nr	eIF4H FP inh	HIV Env fusion	CSC inhib	MT1-MMP act inh
11	x	9	x	-4
12	0	x	0	14
13	x	-7	14	1
14	x	0	x	2
15	-9	-1	2	-4
16	x	-55	x	2
17	-6	1	1	0
18	-2	8	-1	4
19	x	18	x	0
20	x	-4	-6	-5

Continuation:
nr	SMILES	UUG fidelity	Rce1 inh	PABP polyA inh	MT1-MMP act inh RFP
21	COc1ccc(-c2cc(N3C(=O)Nc4ccccc4N3O)n[nH]2)c(OC)c1	-12	i	-9	0
22	Cc1[nH]n(-c2ccccc2)c(=O)c1N=Nc1c(Cl)cccc1Cl	-6	i	-10	-2
23	CCc1ccc(S(=O)(=O)N/N=C(/C)c2ccncc2)cc1	-21	i	5	-4
24	Cc1ccc(C(=O)NNC(=O)c2ccncc2)cc1[N+](=O)[O-]	1	x	x	0
25	CCCCNc1c(-c2ccc(OC)c(SC3CCCCC3)c2)nc2cc(C)ccn12	-18	i	x	-23
26	Cc1cc(NC(=O)CSc2nnc(-c3cccnc3)n2C2CCCCC2C)no1 (stereo not given)	-23	i	3	1
27	Cc1cccc(C)c1OCc1cc(C(=O)NCC2CCCCC2)no1	-13	i	-6	3
28	COc1ccc(CNCCCSc2ncccn2)cc1OC	-4	i	32	4
29	O=C(CCCC(=O)c1ccccc1)Nc1ccc(F)cc1	-30	i	-1	2
30	COC(CNC(=O)C1CCCN(S(=O)(=O)c2c(C)noc2/C=C/c2cccs2)C1)OC (stereo not given)	x	i	0	-3

nr	eIF4H FP inh	HIV Env fusion	CSC inhib	MT1-MMP act inh
21	3	13	-13	-5
22	-2	x	-2	7
23	-5	25	2	6
24	x	0	x	3
25	x	42	92*	17
26	-11	x	-12	3
27	-6	5	-1	3
28	12	2	5	2
29	-7	-2	-7	7
30	-5	-9	-4	-3

Next part
nr	SMILES	UUG fidelity	Rce1 inh	PABP polyA inh	MT1-MMP act inh RFP
31	CCOc1cc(/C=C/c2cccc[n+]2C)ccc1OCC(=O)Nc1ccc(C)cc1	-3	i	39	-3
32	COc1ccccc1NC(=O)Nc1ccc2c(c1)CCC2	-19	i	-7	-2
33	COc1ccc(NC(=O)CCNS(=O)(=O)c2ccc3c(c2)c(=O)n(C)c(=O)n3C)c(OC)c1	x	i	6	4
34	CC(=O)OCC(=O)C1(O)CCC2C3CC(F)C4=CC(=O)CCC4(C)C3C(=O)CC21C (stereo not given)	-13	x	x	4
35	CCOC(=O)CCc1c(C)n(CC)c2cc(-c3ccccc3OC)nn2c1=O	10	i	-12	4
36	CCOc1ccc2nc(Cl)c(C3CC(c4ccco4)=NN3S(=O)(=O)c3ccccc3)cc2c1 (stereo not given)	-25	i	4	-5
37	CS(=O)(=O)N(CC(=O)NCCSCc1c(F)cccc1Cl)c1ccc2c(c1)OCO2	-6	i	10	-1
38	CC1CCN(S(=O)(=O)c2cccc(C(=O)NCc3ccco3)c2)CC1	-8	i	-8	1
39	CCCc1cc(=O)n2[nH]c(-c3ccco3)nc2n1	-15	i	5	5
40	CN1CCN(CC(O)COc2ccc(OCC(O)CN3CCN(C)CC3)cc2)CC1 (stereo not given)	-29	i	-6	0

nr	eIF4H FP inh	HIV Env fusion	CSC inhib	MT1-MMP act inh
31	16	2	x	2
32	-4	-74	2	-2
33	6	x	12	2
34	x	-62	x	-5
35	2	x	-15	10
36	-5	-42	-2	-9
37	-7	x	-10	3
38	-5	-15	-13	3
39	-13	x	-2	-1
40	-6	2	6	0

(further entries)
nr	SMILES	UUG fidelity	Rce1 inh	PABP polyA inh	MT1-MMP act inh RFP
41	O=C(NNS(=O)(=O)c1ccc([N+](=O)[O-])cc1)c1cnn(-c2ccccc2)c1-n1cccc1	-2	i	-3	-3
42	CCn1c(SCC(=O)Nc2nc3ccccc3s2)nnc1-c1ccc(Br)cc1	-3	i	-4	-1
43	CCOC(=O)c1oc2ccc(OC)cc2c1NC(=O)CN1CCN(C)CC1	x	i	0	8
44	Cc1cccc(-n2ncc3c2CCCC3NC(=O)Cn2cccn2)c1C (stereo not given)	-11	i	2	-1
45	CCN(CC)CCNCc1ccc(Br)cc1OCC(=O)NCc1ccccc1	-11	i	-11	4
46	COc1cc2ccccc2cc1C(=O)NCC(c1cccs1)N(C)C (stereo not given)	x	i	-1	-3
47	O=C(NC1CCCCCCC1)c1ccc(S(=O)(=O)N2CCCC2)cc1	-2	i	-2	2
48	O=C(CN(C(=O)c1csnn1)c1ccccc1)NCc1ccc2c(c1)OCO2	-5	i	6	2
49	CC1(C(=O)Nc2ccc(Cl)cc2)Cc2c(-c3ccc4c(c3)OCO4)ccnc2O1 (stereo not given)	-7	x	x	-3
50	O=C(Cc1ccc(Br)cc1)Nc1ccccc1N1CCCC1	-1	i	0	-11

nr	eIF4H FP inh	HIV Env fusion	CSC inhib	MT1-MMP act inh
41	6	17	6	-4
42	4	-13	4	-1
43	-5	-62	3	-4
44	2	2	34	2
45	-2	10	0	18
46	-9	-79	41	-5
47	6	x	-3	5
48	2	6	5	2
49	x	-125	x	-2
50	-52	18	6	-5

Single values from the entries so far.
COc1ccc(-c2cc(N3C(=O)Nc4ccccc4N3O)n[nH]2)c(OC)c1 in MT1-MMP act inh: -5
CN1CCN(CC(O)COc2ccc(OCC(O)CN3CCN(C)CC3)cc2)CC1 (stereo not given) in MT1-MMP act inh: 0

More records follow.
nr	SMILES	UUG fidelity	Rce1 inh	PABP polyA inh	MT1-MMP act inh RFP
51	CCCCNC(=O)c1nc(C2CCN(S(=O)(=O)c3ccc(F)c(F)c3)CC2)oc1-c1ccccc1	-15	x	x	-4
52	CCOC(=O)CSc1cc(CS(C)(=O)=O)nc(-c2ccccn2)n1	-10	i	u	3
53	O=C(NCCCN1CCOCC1)c1cc2nc(-c3ccco3)cc(C(F)(F)F)n2n1	-9	i	-1	1
54	COc1cc(NC(=O)C/C(C)=N/NC(=O)c2ccccn2)c(OC)cc1Cl	-24	i	13	3
55	COC(=O)c1c(-c2ccc(OC)cc2)sc2cc(OC)c(OC)cc12	8	x	x	-1
56	Cc1ccccc1NC(=O)/C=C/c1cccc(C(F)(F)F)c1	-11	i	-6	0

nr	eIF4H FP inh	HIV Env fusion	CSC inhib	MT1-MMP act inh
51	x	8	x	1
52	0	4	-6	0
53	0	-1	x	2
54	1	-11	-6	-2
55	x	-20	38	0
56	-3	-21	8	0

One compound at a time, from the list above. Values in the order: UUG fidelity, Rce1 inh, PABP polyA inh, MT1-MMP act inh RFP, eIF4H FP inh, HIV Env fusion, CSC inhib, MT1-MMP act inh
COC(=O)c1c(-c2ccc(OC)cc2)sc2cc(OC)c(OC)cc12 as listed: 8, x, x, -1, x, -20, 38, 0
Cc1ccccc1NC(=O)/C=C/c1cccc(C(F)(F)F)c1 as listed: -11, i, -6, 0, -3, -21, 8, 0
COc1cc(NC(=O)C/C(C)=N/NC(=O)c2ccccn2)c(OC)cc1Cl as listed: -24, i, 13, 3, 1, -11, -6, -2
CCCCNC(=O)c1nc(C2CCN(S(=O)(=O)c3ccc(F)c(F)c3)CC2)oc1-c1ccccc1 as listed: -15, x, x, -4, x, 8, x, 1

Some of these compounds in order of their number in MT1-MMP act inh RFP, rising:
| No. | Compound | UUG fidelity | Rce1 inh | MT1-MMP act inh RFP | HIV Env fusion | MT1-MMP act inh |
| --- | --- | --- | --- | --- | --- | --- |
| 41 | O=C(NNS(=O)(=O)c1ccc([N+](=O)[O-])cc1)c1cnn(-c2ccccc2)c1-n1cccc1 | -2 | i | -3 | 17 | -4 |
| 55 | COC(=O)c1c(-c2ccc(OC)cc2)sc2cc(OC)c(OC)cc12 | 8 | x | -1 | -20 | 0 |
| 26 | Cc1cc(NC(=O)CSc2nnc(-c3cccnc3)n2C2CCCCC2C)no1 (stereo not given) | -23 | i | 1 | x | 3 |
| 43 | CCOC(=O)c1oc2ccc(OC)cc2c1NC(=O)CN1CCN(C)CC1 | x | i | 8 | -62 | -4 |

Assay outcomes as filed in PubChem.
